RE007 growth inh = less growth of the S. pombe RE007 Vpr strain; S. pombe RE007 Vpr strain, BacTiter-Glo ATP luminescence, 24 h; control for the full effect not named in the record; Potency, µM (doses to about 92.2 µM), inactives show at the highest dose activity change, negative = less growth; AID 651644; hit rate 0.21% among 360,000; active = well fitted falling curve with a large enough effect; inconclusive = small, poorly fitted or top-dose-only effect; inactive = no such curve, though single readings can be large or run the other way;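 note: % is set by controls: 0 for no effect and ±100 for the full control effect; nearly all actives have a fitted effect of over 50% in size; the assay follows cell death caused by Vpr and the record does not say whether a fall means rescue or toxicity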
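Fission yeast RE007 carrying one integrated HIV-1 vpr copy, seeded at OD 0.01 in PMG+AL medium with 23 nL pinned compound. Grown 24 h at 30 degrees; viability read by BacTiter-Glo luminescence after 5 min.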
Marburg entry inh = blocks Marburg virus binding to or entry into cells; Marburg virus pseudotyped entry inhibition, cell reporter; control for the full effect not named in the record; about a third of the inactives were read at about 46 µM; Potency, µM (doses to about 37.8 µM), inactives show at the highest dose activity change, negative = inhibition, most hits filed as inhibitors; hit rate 1.8% among 300,000; AID 540276; active = well fitted inhibition curve with a large enough effect; inconclusive = small, poorly fitted or top-dose-only effect, or effect the other way; inactive = flat fitted curve, though single readings scatter; tested in HEK293 cells; about a fifth of its hits are not listed in these tables; note: % is set by controls: 0 for no effect and ±100 for the full control effect; luciferase read-out
SARS PLP yeast = SARS-CoV PLP inhibition in yeast; S. cerevisiae expressing SARS-CoV PLpro, growth rescue; control for the full effect not named in the record; Potency, µM (titrated, usually from 32.9 µM), for the others: at the top dose activity, positive = growth rescue; hit rate 0.19% among 330,000; active means well fitted rising curve with a large enough effect; inconclusive means small, poorly fitted or top-dose-only effect; inactive means no such curve, though single readings can be large or run the other way; note: 0% is about no effect; nearly all actives have a fitted effect of over 55% in size; growth read by luminescence after 48 h
Cruzain Triton = cruzain (T. cruzi) inhibition with detergent; AID 1478; hit rate 0.43% among 200,000; Potency, µM, for the others: max response, negative = inhibition, hits mostly inhibitors; P25779; purified cruzain, Z-FR-AMC fluorescence, 0.01% Triton;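 note: plate controls were neutral wells for no effect and buffer without enzyme for full effect; nearly all actives have a fitted effect of over 40% in size; top concentration of the series not given in the record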
Target sequence (P25779 123-467 limits assumed): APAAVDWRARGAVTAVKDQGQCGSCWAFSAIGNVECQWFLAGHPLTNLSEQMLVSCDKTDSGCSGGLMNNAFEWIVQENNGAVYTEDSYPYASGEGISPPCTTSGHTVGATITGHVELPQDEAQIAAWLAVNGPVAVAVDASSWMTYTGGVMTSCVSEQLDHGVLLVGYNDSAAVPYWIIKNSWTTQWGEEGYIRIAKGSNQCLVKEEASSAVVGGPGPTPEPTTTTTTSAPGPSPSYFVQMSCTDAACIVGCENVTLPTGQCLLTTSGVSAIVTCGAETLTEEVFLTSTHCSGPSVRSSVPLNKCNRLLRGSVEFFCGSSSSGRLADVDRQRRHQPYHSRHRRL
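Steps: dispense cruzain (1.5 nM final) in acetate buffer pH 5.5 with DTT and 0.01% Triton X-100; pin-transfer compounds; incubate 15 min RT; add Z-FR-AMC (2 uM final); read fluorescence every 30 s, using the 60 s intensity change.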
NS1 function inh = influenza NS1 inhibition; Potency, µM (series often up to 46.1 µM), for the others: at the highest dose activity, positive = more growth; S. cerevisiae slowed by influenza A NS1, growth recovery by OD600; hit rate 0.4% among 270,000; AID 2326; active means well fitted rising curve with a large enough effect; inconclusive means small, poorly fitted or top-dose-only effect; inactive means no such curve, though single readings can be large or run the other way; note: nearly all actives have a fitted effect of over 50% in size
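Compounds were scored for reversing the slow growth caused by influenza A NS1 in S. cerevisiae, measured by optical density at 600 nm. Assay medium contained 2% galactose at pH 6.0; NS1-free yeast of the same strain were the positive control.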
StopGo reporter = lowers the luciferase signal of an FMDV 2A StopGo reporter | human cells with a luciferase reporter of 2A StopGo recoding; control for the full effect not named in the record | Potency, µM (series often up to 57.9 µM), inactives show at the top dose signal change, negative = less light | hit rate 1.2% among 410,000; active = well fitted falling curve with a large enough effect; inconclusive = small, poorly fitted or top-dose-only effect; inactive = no such curve, though single readings can be large or run the other way; tested in HEK293T cells; note: % is set by controls: 0 for no effect and ±100 for the full control effect; nearly all actives have a fitted effect of over 45% in size; luciferase light after 4 h
Cruzain noTriton = cruzain (T. cruzi) inhibition without detergent; P25779; purified cruzain, Z-FR-AMC fluorescence, no detergent; Potency, µM, for inactives: max response, negative = inhibition, hits mostly inhibitors; hit rate 2.3% among 200,000; AID 1476;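 note: plate controls were enzyme without inhibitor for no effect and buffer without enzyme for full effect; nearly all actives have a fitted effect of over 40% in size; top concentration of the series not given in the record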
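Purified cruzain at 1.5 nM, pre-incubated 15 min with compound at room temperature in 100 mM sodium acetate pH 5.5, 5 mM DTT, 0.00005% Triton X-100. Reaction started with 2 uM Z-FR-AMC; AMC fluorescence increase over 60 s gives rate.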
LASV entry inh = blocks Lassa virus binding to or entry into cells | AID 540256 | Potency, µM (titrated, usually from 37.9 µM), without a hit: at the top dose activity change, negative = inhibition, usual class: inhibitors | hit rate 1.2% among 300,000 | Lassa virus pseudotype entry inhibition, cell reporter; control for the full effect not named in the record; active means well fitted inhibition curve with a large enough effect; inconclusive means small, poorly fitted or top-dose-only effect, or effect the other way; inactive means flat fitted curve, though single readings scatter; tested in HEK293 cells; note: % is set by controls: 0 for no effect and ±100 for the full control effect; nearly all actives have a fitted effect of over 50% in size; luciferase read-out
Active calls of the source: *; ? = inconclusive; . = not tested or not shown; & = joins results of further samples; [ ] = dose if it differs, or a comment. Unless noted, calls come from the whole dose curve; as a rule, active = well fitted curve in the direction sought with a large enough effect; inconclusive = small, poorly fitted or top-dose-only effect, or another doubt; inactive = no such curve, though single readings can be large; an effect the other way counts as inactive or inconclusive. Potency is the fitted concentration of half-maximal effect.

SMILES	RE007 growth inh	Marburg entry inh	SARS PLP yeast	Cruzain Triton	NS1 function inh	StopGo reporter	Cruzain noTriton	LASV entry inh
Cc1nc(-c2cccc(S(=O)(=O)N3CCC(C(=O)NCc4ccccc4Cl)CC3)c2)no1	.	.	.	-3.9%	.	0%	-9%	6%[46.1 µM]
COc1ccc(C(=O)Nc2nc3c(s2)CCCC3)cc1Cl	.	?	.	-11%	.	-14%	?	23%[46.1 µM]
O=C(O)CCCN1C(=O)/C(=C\c2ccc(-c3nc4ccccc4s3)o2)SC1=S	4%	.	0%	.	-1%	-9%	.	.
COCC1CCCN(C(=O)c2ccc3oc(C(C)C)nc3c2)C1 (stereo unspecified)	-6%	.	29%	.	-6%	15%	.	.
CCN(CC)S(=O)(=O)c1ccc(C(=O)Nc2cc3oc4ccccc4c3cc2OC)cc1	-2%	-7%	9%	-1.7%	-4%	-25%	?	?
COc1ccc(CNC(=O)C(Cc2ccccc2)NS(=O)(=O)c2ccc3c(c2)CCN3C(C)=O)cc1 (stereo unspecified)	.	?	.	-4.1%	.	19%	10%	-11%[46.1 µM]
CS(=O)(=O)c1ccc(Cl)c(NC(=O)C2CCCN(C(=O)c3ccc(Cl)cc3)C2)c1 (stereo unspecified)	4%	2%[46.1 µM]	0%	.	.	-20%	.	-21%
O=C(c1ccccc1)N1CCN(C(=O)C2CC2)CC1	-14%	-7%[46.1 µM]	4%	.	11%	-2%	.	1%[46.1 µM]
CSc1nc(N)c2ncn([C@@H]3O[C@H](COP(=O)(O)OP(=O)(O)O)[C@H](O)[C@H]3O)c2n1	.	30%	.	3.3%	4%	.	-4%	.
CC(=O)C1=C(O)C(=O)N(Cc2ccco2)C1c1ccc(F)cc1 (stereo unspecified)	14%	21%	5%	-6.2%	13%	.	-4%	-1%
O=C(NCCN=C1NS(=O)(=O)c2ccccc21)c1ccco1	15%	0%	6%	-0.2%	-1%	.	4%	17%
COc1ccc(C(=O)Nc2ccc(-c3nc4ccccc4s3)cc2C)cc1Cl	.	?	.	-0.3%	.	26%	-11%	24%[46.1 µM]
Cn1c(=O)c2ncn(CC(=O)Nc3ccc4c5c(cccc35)CC4)c2n(C)c1=O	11%	12%	8%	13µM*	-33%	-26%	13µM*	20%
CCCCn1c(N)c(N(Cc2ccccc2OC)C(=O)c2sccc2C)c(=O)[nH]c1=O	20%	-12%	2%	.	.	-15%	.	-4%
CCOC(=O)c1c(NC(=O)COc2ccccc2F)sc2c1CC(C)(C)NC2(C)C	-7%	?	-10%	.	.	-15%	.	-1%
Cc1c(C(=O)OC/C(O)=C(\C#N)c2nc3ccccc3[nH]2)oc2ccccc12	10%	?	1%	.	6%	?	.	?
O=C(O)c1ccccc1NC(=S)NC(NC(=O)c1ccccc1[N+](=O)[O-])C(Cl)(Cl)Cl (stereo unspecified)	-13%	-7%	-3%	-5.5%	?	19%	-7%	7%
O=C(O)C1CCCNC1 (stereo unspecified)	3%[18.4 µM]	?	-9%	-1.3%&2.9%&2.8%	12%&-2%	-12%&-2%	3%&10%&15%	2%&-15%
Cc1c(CC(=O)NCCc2ccccc2F)c(=O)oc2c(C)c3occ(C(C)(C)C)c3cc12	.	16%[46.1 µM]	.	-1.6%	.	-21%	2%	-3%[46.1 µM]
COc1ccc(C(=O)NC(=S)Nc2ccccc2N2CCOCC2)cc1[N+](=O)[O-]	-9%	?	-22%	-4.3%	0%	?	-10%	-7%
N#Cc1ccc(COC(=O)c2ccc(N3CCCC3)c([N+](=O)[O-])c2)cc1	2%	-16%[46.1 µM]	9%	-4.2%	5%	-12%	-5%	3%
O=C1OCCN1C(=O)[C@H]1[C@H](c2ccc([N+](=O)[O-])cc2)C(c2ccc(F)cc2)=NN1c1ccc(Br)cc1	2%	.	18%	1.5%	.	-19%	8.9µM*	.
CCOc1ccc(N2CC(C(=O)NCc3ccccc3)CC2=O)cc1 (stereo unspecified)	5%	-4%[46.1 µM]	2%	.	.	-22%	.	-7%[46.1 µM]
CC1=C(C(=O)Nc2cccc(C(=O)NC(C)C)c2)SCCO1	-14%	7%[46.1 µM]	0%	.	3%	-8%	.	-18%[46.1 µM]
Cc1nnc(SCCC(=O)Nc2ccccc2Cl)o1	-6%	-3%	-1%	.	7%	-8%	.	-11%

Next part.
SMILES	RE007 growth inh	Marburg entry inh	SARS PLP yeast	Cruzain Triton	NS1 function inh	StopGo reporter	Cruzain noTriton	LASV entry inh
CCOC(=O)c1ccc(NC(=O)CCc2c(C)n(CC)c3cc(-c4ccccc4OC)nn3c2=O)cc1	.	5%[46.1 µM]	.	1.0%	.	-1%	-12%	11%[46.1 µM]
CN(CC(=O)NCC1CCCCC1)S(=O)(=O)c1ccc(Cl)cc1	-9%	7%	0%	.	-7%	-12%	.	2%
O=C(NC(=S)NC1CCS(=O)(=O)C1)c1cccc([N+](=O)[O-])c1 (stereo unspecified)	8%	.	0%	.	7%	9%	.	.
Fc1ccccc1NC(=S)N/N=C/c1ccccc1Br	0%	2%	1%	-7.7%	-1%	73%[activator]	?	-4%
COc1ccc(NS(=O)(=O)c2cccc(C(=O)NCC(c3ccccc3)N(C)C)c2)cc1 (stereo unspecified)	-6%	2%	15%	.	.	0%	.	1%
CNC(=O)/C(C#N)=C/c1c(N2CCN(c3cccc(Cl)c3)CC2)nc2c(C)cccn2c1=O	-10%	-9%	-2%	.	-1%	-29%	.	?
C=CCn1c(=O)c(C(=O)NCCN(CC)CC)c(O)c2ccccc21	1%	-11%&-11%	?	-3.8%	-4%	0%	-4%	-15%
CCN1CCN(C(=O)CSc2cc(=O)n(CC)c3ccccc23)CC1	2%	?	-14%	-1.1%	4%	23%	-6%	-4%
CCOC(=O)N1CCC(N(CCOC)C(=S)Nc2cccc(SC)c2)CC1	-19%	10%[46.1 µM]	-1%	.	.	6%	.	?
CC(=O)OCCCCON1C(=O)c2ccccc2C1=O	12%	10%	11%	6.9%	-4%	-3%	-8%	0%
Cc1nn(C)cc1/C=N\NC(=O)c1ccc(Cn2cc(Cl)cn2)cc1	2%	19%	27%	-2.7%	13%	6%	0%	?
COc1ccccc1NCC(=O)NC(=O)NC1CCCCC1	-2%	13%[46.1 µM]	?	.	.	-5%	.	3%[46.1 µM]
O=[N+]([O-])c1ccc(OCCCn2cncn2)cc1	1%	3%	7%	.	-10%	-9%	.	9%
CCC(C)c1ccccc1N1CC(C(=O)N2CCN(c3ccccc3)CC2)CC1=O (stereo unspecified)	-3%	-15%	.	.	.	-26%	.	-20%
CCN(C(=O)COC(=O)C1CCN(S(=O)(=O)c2ccc3c(c2)OCCO3)CC1)C1CCS(=O)(=O)C1 (stereo unspecified)	6%	19%	-5%	.	.	-19%	.	-5%
CSCC[C@H](NC(=O)C1=NN(c2c(F)c(F)cc(F)c2F)C(=O)CC1)c1nc2ccccc2[nH]1	-2%	.	1%	.	6%	-15%	.	.
Cc1ccc(-c2nnc(Nc3ccc(C(=O)N(C)C)cc3)c3ccccc23)cc1S(=O)(=O)N(C)C	.	.	.	-10%	.	-26%	?	-32%[46.1 µM]
Cc1ccc(Cl)cc1NC(=O)C1CC1c1ccccc1 (stereo unspecified)	4%	6%[46.1 µM]	-3%	.	-9%	5%	.	-4%[46.1 µM]
N#Cc1ccccc1OCC(=O)NCC(c1cccs1)N1CCOCC1 (stereo unspecified)	-4%	.	7%	.	3%	-11%	.	.
O=C(NC1CCCc2c1cnn2-c1ccc(F)cc1F)c1ccccc1N1CCOCC1 (stereo unspecified)	14%	?	-11%	.	-71%	-19%	.	8%
Cc1ccc(-c2nc(CS(=O)(=O)CC(=O)NC3CCCCC3C)c(C)o2)cc1 (stereo unspecified)	17%	.	7%	2.0%	3.2µM*	-5%	2%	.
CCCc1cc(=O)n2[nH]c(SCc3ccc(Cl)cc3)nc2n1	22%	.	-1%	.	3%	4%	.	.
N#Cc1ccsc1NC(=O)c1ccc(Cl)c([N+](=O)[O-])c1	-5%	.	-6%	.	-66%	-13%	.	.
CCN(CC)C(=O)Cn1c(=O)n(CCCCCC(=O)Nc2ccccc2)c(=O)c2sccc21	5%	?	-27%	-3.7%&-2.4%	-5%	1%&-18%	-1%&8%	-3%[46.1 µM]
COc1ccccc1C(c1nnnn1CC1CCCO1)N1CCN(c2ccccc2)CC1 (stereo unspecified)	10%	-24%[46.1 µM]	2%	.	-5%	6%	.	?

Next part
SMILES	RE007 growth inh	Marburg entry inh	SARS PLP yeast	Cruzain Triton	NS1 function inh	StopGo reporter	Cruzain noTriton	LASV entry inh
COC(=O)c1ccc(C2/C(=C(/O)c3ccc4c(c3)CC(C)O4)C(=O)C(=O)N2CCN2CCOCC2)cc1 (stereo unspecified)	4%	26%[46.1 µM]	-2%	.	-3%	-3%	.	1%[46.1 µM]
Cc1ccnc(NC(=O)CCC2COc3ccccc3O2)c1 (stereo unspecified)	-15%	15%	-1%	-1.5%	-5%	5%	-7%	-1%
COc1cc(NS(=O)(=O)c2ccc(NS(=O)(=O)c3ccc(NC(C)=O)cc3)cc2)nc(OC)n1	-4%	1%[46.1 µM]	10%	.	2%	17%	.	.
COc1ccc(/C(CC2(O)C(=O)Nc3ccccc32)=N\O)cc1 (stereo unspecified)	16%	?	1%	4.7%	2%	8%	10%	2%
CN(C)c1nc(NCc2ccccc2)nc(N/N=C/c2cccc(Br)c2)n1	-1%	?	-3%	.	-4%	?	.	11%
CC12CN3CC(C)(CN(C1)C3c1ccc(Cl)cc1)C2 (stereo unspecified)	2%	-2%	0%	.	4%	-13%	.	-1%
COc1ccccc1NC(=O)CSc1nc(N)c(-c2ccccc2)c(=O)[nH]1	-4%	8%[46.1 µM]	-1%	.	-4%	-23%	.	-1%
O=C(O)c1ccccc1Nc1ccccc1	-9%	?	.	-4.1%&-5.1%	-40%	-11%	-21%&-3%	8%
CC1(C)OC(=O)N(c2ccccc2)C12C=Cc1cc(Br)ccc1O2 (stereo unspecified)	14%	18µM*	-8%	1.6%	-76%	?	3%	-11%
Cc1cc2nncn2c2ccccc12	3%	22%	6%	3.6%	4%	8%	-8%	-10%
O=C(c1ccc(S(=O)(=O)N2CCOCC2)cc1)N1CCCc2ccccc21	0%[3.69 µM]	-2%	1%	3.0%	21%	-18%	0%	-19%

Screens: PubChem BioAssay, National Center for Advancing Translational Sciences (NCATS)
